Bioassay records from PubChem.
VDR inh: inhibitors of human vitamin D receptor; hit rate 0.93% among 400,000; Potency, µM, inactives show max response, negative = inhibition, most hits filed as inhibitors; P11473; VDR-SRC2-3 peptide fluorescence polarization, 2 h; active means well fitted inhibition curve with a large enough effect; inconclusive means small, poorly fitted or top-dose-only effect, or another doubt; inactive means no such curve, though single readings can be large or run the other way; further: series mostly up to about 120 µM
Target sequence (P11473 whole entry, looked up): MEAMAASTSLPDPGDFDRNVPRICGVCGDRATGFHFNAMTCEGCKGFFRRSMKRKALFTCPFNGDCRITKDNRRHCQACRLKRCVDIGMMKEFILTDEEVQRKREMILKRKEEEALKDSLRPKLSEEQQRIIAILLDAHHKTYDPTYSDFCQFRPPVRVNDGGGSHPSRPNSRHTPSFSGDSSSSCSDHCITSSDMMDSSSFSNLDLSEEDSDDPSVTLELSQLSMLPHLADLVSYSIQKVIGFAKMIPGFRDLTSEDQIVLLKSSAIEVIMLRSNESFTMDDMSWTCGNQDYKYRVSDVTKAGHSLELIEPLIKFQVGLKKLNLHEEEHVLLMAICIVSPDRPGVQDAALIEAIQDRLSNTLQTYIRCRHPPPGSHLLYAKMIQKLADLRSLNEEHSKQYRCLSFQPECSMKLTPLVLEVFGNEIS
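Two reagent solutions held at 4 deg C in the dark were dispensed, compounds pinned at 23 nl, and the mixture incubated 2 h at room temperature. Read-out: fluorescence polarization of VDR–SRC2-3 peptide binding.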
Active calls of the source: *; u = inconclusive; & = joins results of further samples. On the % scale 0 is the no-effect control and ±100 the full control effect; potency means the concentration at half of the fitted maximal effect. These rows are one share of the data (hit frequency here may not be typical).

SMILES	VDR inh
O=C(Cc1n[nH]c(=O)c2ccccc12)N/N=C/c1cc2c(cc1Cl)OCO2	-8%
CC1CCCN(S(=O)(=O)c2ccc3[nH]c4c(c3c2)CCCC4)C1 (stereo not drawn)	-8%
Nc1ccc(C(=O)Nc2ccc3nc(-c4ccncc4)[nH]c3c2)cc1	2%
N#CC1CC(c2ccccc2)Nc2cc(Cl)ccc2N1 (stereo not drawn)	-11%
O=C(/C=C/c1ccc(N2CCCCC2)c([N+](=O)[O-])c1)c1ccc(S(=O)(=O)N2CCCC2)cc1	u
COCC(C)n1c(SCc2nc(N)nc(Nc3ccccc3C)n2)nc2ccccc2c1=O (stereo not drawn)	0%
Cc1nc2oc3c(NCc4ccccn4)ncnc3c2c2c1COC(C)(C)C2	-4%
COc1cc(NC(=O)c2cc(-c3ccccc3O)no2)cc(OC)c1OC	2%
CCN(CC)S(=O)(=O)c1ccc(N2CCCC2)c(NC(=O)Cc2c(F)cccc2Cl)c1	15%
O=C1NC(=S)SC1=Cc1cc(Br)ccc1O	u
CCOC(=O)CN1C(=O)N[C@@H](c2cccc(C(F)(F)F)c2)[C@H](C(C)=O)[C@H]1C	-4%
CC(C)(C)c1cc(C(=O)NCCCn2ccnc2)cc(C(C)(C)C)c1	-14%
CCOc1ccc2[nH]c(=O)c(CN(CCN3CCOCC3)Cc3nnnn3C(C)(C)CC)cc2c1	10%
Cc1cccc(OCC(=O)NNC(=O)Nc2cccc(Cl)c2)c1C	-12%
O=C(NC1CCCc2ccccc21)C1CCN(S(=O)(=O)c2cccc3nonc23)CC1 (stereo not drawn)	20%
CC(=O)c1cccc(N(C(=O)c2ccco2)C(C(=O)NC2CCCC2)c2ccccc2F)c1 (stereo not drawn)	-15%
Cc1cc(F)ccc1S(=O)(=O)Nc1ccccc1C(=O)Nc1ccccc1-c1nc2ccccc2[nH]1	-13%
CCC(NC(=O)c1cccc(Cn2nc(C)c([N+](=O)[O-])c2C)c1)c1ccc(C(C)C)cc1 (stereo not drawn)	21%
COc1cccc(-c2ccc3ncnc(NCc4cc(C)cs4)c3c2)c1	-7%
CNC1(c2nnnn2-c2c(C)cccc2C)CCOC(C)(C)C1 (stereo not drawn)	-12%

The last 2 entries of the section above lead into the next.
SMILES	VDR inh
COc1cccc(-c2ccc3ncnc(NCc4cc(C)cs4)c3c2)c1	-7%
CNC1(c2nnnn2-c2c(C)cccc2C)CCOC(C)(C)C1 (stereo not drawn)	-12%
Cc1cc(C)cc(N2C(=O)C3NN=C(C(=O)OCc4ccccc4)C3C2=O)c1 (stereo not drawn)	0%
O=C(OCC#CCSc1nnc(-c2cccc3ccccc23)o1)c1cc2ccccc2o1	-23%
CCN(CC)C(=O)CSc1nc2c(c(-c3cccnc3)c1C#N)CCCC2	0%
CN1CCC(=O)N([C@H](CO)Cc2ccccc2)CC1	-3%
Cc1ccc2c(c1)c1c(c(=O)n(-c3ccccc3)c(=O)n1CC(=O)N1CCCC1)n2C	12%
Cc1ccc2c(c1)C1(OCCCO1)C(=O)N2CC(=O)NN	-4%
COc1ccc(CNC(=O)c2c(C)nc3ccccn23)cc1	-12%
O=C(Nc1ccccc1Cl)N1CCN(C/C=C/c2ccccc2)CC1	8%
Cc1ccc(C=Nc2ccccc2C(N)=O)o1	4%
CC(C)(Oc1ccc(Cl)cc1)C(=O)O/N=C(\N)c1ccncc1	6%
Cc1ccc(S(=O)(=O)N(C)CC(=O)N2CCN(Cc3ccccc3)CC2)cc1	9%
COc1ccc(COc2ccc3c(C)cc(=O)oc3c2)cc1	8%
C[C@@H]1C(c2ccccc2)=NN(c2ccccc2)[C@H]1C(=O)N1CCOC1=O	-1%&3%
Cc1ccc(S(=O)(=O)N2CCN(Cc3cc(=O)n4ccccc4n3)CC2)cc1C	-26%
Cc1ccc2nc(CNC(=O)C3CCC(=O)N(Cc4ccccc4F)C3)cn2c1 (stereo not drawn)	4%
O=c1c(C(c2ccc(F)cc2)c2c(O)nc3n(c2=O)CCS3)c(O)nc2n1CCS2	u
O=S(=O)(c1ccccc1)N1CCN(c2ncnc3sc(-c4ccccc4)cc23)CC1	-18%
C/C=C\C=C/C(=O)Nc1cccc(C2=NOC3(C2)C[C@@H](C(N)=O)N(C(=O)/C=C/C=C\C)C3)c1 (stereo partly drawn)	u
COC(=O)c1ccccc1NC(=O)C1CCN(C(=O)c2ccc(OC)cc2)CC1	-17%
CC(=O)c1ccc(NC(=O)CN2CCOCC2)cc1	u

Taken from above.
COc1ccc(COc2ccc3c(C)cc(=O)oc3c2)cc1 – VDR inh = 8%
Cc1ccc(S(=O)(=O)N2CCN(Cc3cc(=O)n4ccccc4n3)CC2)cc1C – VDR inh = -26%
Cc1ccc2c(c1)C1(OCCCO1)C(=O)N2CC(=O)NN – VDR inh = -4%

Next part
SMILES	VDR inh
Cc1cc(C(C)(C)C)n2nc(C)c(-c3ccccc3)c2n1	-9%
Cc1nc2cc(-c3ccccc3)nn2c(C)c1CCC(=O)NCc1ccco1	7%
COc1ccc(C)cc1S(=O)(=O)N1CCN(S(=O)(=O)c2cc(C(=O)O)ccc2C)CC1	-7%
COc1ccc(OC)c(CNC(=O)c2cccc(NC(=O)N3CCSc4ncccc43)c2)c1	3%
CCOc1ccc(NC(=O)CSc2nc3nc(C)cc(C)n3n2)cc1	12%
Cc1cccc(Cn2c(SCc3ccc(C(=O)NCc4cccs4)cc3)nc3cccnc32)c1	3%
CCC(=O)Nc1ccc(F)c(Cl)c1	7%
COc1ccc(C(=O)CSc2nnc(-c3ccco3)c(-c3ccco3)n2)cc1	-20%
Cc1nc2c([nH]1)C1(CCN(Cc3ccccc3)CC1)C(C#N)=C(N)O2	6%
CCOC(=O)c1ccc(OCC2c3cc(OC)c(OC)cc3CCN2C(=O)Cc2ccc(F)cc2)cc1 (stereo not drawn)	-5%
O=C(NCc1cccs1)C1CCN(S(=O)(=O)c2ccc(Br)s2)CC1	-3%
N#Cc1cccc(NC(=O)C2CCCN(C(=O)c3ccc(Cl)cc3)C2)c1 (stereo not drawn)	19%
CCCCCC(CC(=O)O)C(=O)O (stereo not drawn)	-3%
Cc1cc(NC(=O)CN2CCN(C)CC2)no1	u
O=C(NCCc1ccccc1)c1nc2c(nnn2Cc2ccccc2Cl)c(=O)[nH]1	-12%
O=C(NCc1ccco1)c1n[nH]c(=O)c2ccccc12	-2%
O=c1[nH]c2ccc(NC(=S)Nc3ccccc3Cl)cc2[nH]1	-6%
CCOC(=O)c1ccc(NC(=O)Cn2cnc3cc(C)c(C)cc32)cc1	7%
CCc1ccccc1NC(=O)CN(C)C(=O)COC(=O)c1c(Cl)cccc1Cl	0%
CCN(CC)c1cc(Oc2ccccc2)ncn1	8%

(next part)
| compound | VDR inh |
| --- | --- |
| COc1ccc(CCNC(=O)c2c(C)nn(CC(C)C)c2Cl)cc1OC | -5% |
| Cc1cc(C(=O)CCC(=O)Nc2ncccc2O)c(C)s1 | 1% |
| CCC(C)NC(=O)CSc1nc(-c2ccc(F)cc2)cc(C(F)(F)F)n1 (stereo not drawn) | u |
| COc1ccc(CCCc2nnc(SCC(=O)Nc3nccs3)n2C)cc1C | 4% |
| O=C(COC(=O)CCC(=O)c1cccs1)NCc1ccco1 | -2% |
| Cc1ccc2c(=O)c(CN3CCCCCC3)c(C)[nH]c2c1C | -5% |
| CC(=O)C1=C(O)C(=O)N(c2ccc(O)cc2)C1c1ccccc1Cl (stereo not drawn) | -14% |
| O=C(COc1ccc(Cl)cc1)OCCNC12CC3CC(CC(C3)C1)C2 | -1% |
| COc1ccc(NC(=O)CSc2nc(C(C)C)nc3c2c(=O)n(C)c(=O)n3C)c(OC)c1 | -1% |
| COc1ccc(CNC(=O)CCCN2C(=O)c3cccnc3Oc3ccc(Cl)cc32)cc1 | 7% |
| Clc1ccccc1CN(Cc1ccccc1)C(c1cccs1)c1nnnn1C1CCCC1 (stereo not drawn) | 0% |
| O=C(N/C(=C\c1ccco1)C(=O)N1CCOCC1)c1ccccc1Cl | -8% |
| COC(=O)c1ccccc1NC(=O)c1cc(-c2ccccc2O)no1 | 15% |
| COc1ccc(C(=O)NCC2CCCCC2)cc1S(=O)(=O)N1CCOCC1 | 13% |
| Cc1cc2cc(CNC(=S)Nc3ccc(OC(F)(F)F)cc3)ccc2[nH]1 | -3% |

Brought forward from above: 2 entries; new compounds follow.
| compound | VDR inh |
| --- | --- |
| COc1ccc(C(=O)NCC2CCCCC2)cc1S(=O)(=O)N1CCOCC1 | 13% |
| Cc1cc2cc(CNC(=S)Nc3ccc(OC(F)(F)F)cc3)ccc2[nH]1 | -3% |
| Cn1ncc([N+](=O)[O-])c1C(=O)Nc1ccccc1C(=O)O | -4% |
| CCOC(=O)N1CCC(N2Cc3cccc(C(=O)Nc4cc(F)ccc4F)c3C2=O)CC1 | -14% |
| Nc1ccc(Oc2ccccc2F)nc1 | 2% |
| CN(Cc1ccccc1)C(=O)COC(=O)c1ccc(Br)o1 | -9% |
| C[C@H](NC(=O)C1CCN(C(=O)[C@H](Cc2ccccc2)NC(=O)OC(C)(C)C)CC1)C(=O)O | -1% |
| CC(C)Nc1nc(NC(C)C)nc(N(C)N)n1 | 15% |
| CC(C)Cc1ccc(C(C)C(=O)Nc2ccc(O)cc2)cc1 (stereo not drawn) | -8% |
| Cc1cccc(-n2c(-c3ccco3)n[nH]c2=S)c1 | -10% |
| Cc1c(C(N)=O)sc2ncn(CCOc3ccccc3)c(=O)c12 | -20% |
| COc1cccc(C(C(=O)NC2CCCCC2)N(CC2CCCO2)C(=O)CNC(=O)c2ccco2)c1 (stereo not drawn) | 7% |
| COc1ccc(/C=N/NC(=O)C(N)=O)c(OC)c1OC | -11% |
| Cc1ccc(C)c(N2CCN(c3nc4ccccc4c(=O)n3-c3ccccc3)CC2)c1 | 0% |
| O=C(O)CCCC1(C(=O)O)CCCC1 | 8% |
| O=[N+]([O-])c1ccccc1S(=O)(=O)N1CCN(C2CCCC2)CC1 | -10% |
| C=CCc1cccc2cc(C(=O)NNC(=O)c3ccncc3)c(=O)oc12 | 3% |
| CCCN1C(=O)/C(=C/c2cc(C)n(C)c2C)SC1=Nc1ccc(OCC)cc1 | 14% |
| CCCCCN(C(=O)CCC(=O)OCC(=O)N1CCCCC1)c1c(N)n(CCCC)c(=O)[nH]c1=O | 0% |
| COc1ccc(NC(=O)c2sc3ncn(CC(=O)N4CCN(c5ccccn5)CC4)c(=O)c3c2C)c(OC)c1 | 19% |
| COc1ccc2ccccc2c1/C=N/NC(=O)c1nnn(-c2nonc2N)c1CN(C)C | -9% |
| CC(CNS(=O)(=O)c1ccccc1)(c1ccccc1)N1CCCCC1 (stereo not drawn) | -8% |
| CCCNC(=O)COC(=O)c1cc(C)nc2ccccc12 | 17% |
| CN(CCN1CCOCC1)C(=O)c1cc(COc2ccc(F)c(F)c2)on1 | -3% |
| COC(=O)c1ccc(NC(=O)CSc2nc3ccccc3c(=O)[nH]2)cc1 | 5% |
| Cc1cc2c(cc3c(SCc4ccccc4Cl)nnc(C)n32)o1 | 9% |
| O=C(CN1C(=O)/C(=C/c2ccccc2F)SC1=S)NC1C=CS(=O)(=O)C1 (stereo not drawn) | -4% |
| NC(=O)C1CCN(C(=O)c2ccc([N+](=O)[O-])cc2NC(=O)c2cccs2)CC1 | -1% |
| COc1cccc(OC)c1C(=O)NC(=O)Nc1c(C)cccc1C | -5% |
| COc1ccc(N2CCN(Cc3nc4c(c(=O)[nH]c(=O)n4C)n3Cc3ccc(Cl)cc3)CC2)cc1 | 2% |
| O=C1CC(c2cccs2)c2ccc3ccccc3c2N1 (stereo not drawn) | 1% |
| CCN1CCN(c2cc(C)nc(-c3ccccc3O)n2)CC1 | 1% |
| CCOC(=O)C1=C(N)Oc2c(oc(CO)cc2=O)C1c1ccc(F)cc1 (stereo not drawn) | 8% |
| CN(C)c1ccc(CNC(=O)c2cc3cc(S(=O)(=O)N4CCCCC4)ccc3n2C)cc1 | 15% |
| COc1ccc2c(Sc3ccccc3)c(C(=O)NCc3ccc(OC(C)C)cc3)[nH]c2c1 | 9% |
| COC(=O)CN1C(=O)COc2ccc(S(=O)(=O)NCc3ccccc3)cc21 | -4% |
| CCC(=O)c1ccc(OCC(=O)NCC2(N3CCCCC3)CCCCC2)cc1 | 3% |
| CCOC(=O)c1c(NC(=S)NC(=O)c2ccco2)sc2c1CCCC2 | 10% |
| CC(=O)N1CCN(CC(=O)Nc2cccc(S(=O)(=O)N3CCCCCC3)c2)CC1 | 0% |
| COc1ccc(NC(=O)C2CC(=O)N/C(=N/N=C/c3ccccc3)S2)cc1 (stereo not drawn) | 6% |
| COc1ccc(COC[C@H](C)[C@H](O[Si](C)(C)C)[C@@H](C)[C@H]2OC(=O)[C@H]2C)cc1 | -5% |
| Cn1c(N)c(C(=O)COC(=O)C23CC4CC(CC(C4)C2)C3)c(=O)n(C)c1=O | 20% |
| Cc1ccc(NC(=O)C2CCN(S(=O)(=O)c3ccc4c(c3)NC(=O)CO4)CC2)cc1C | -18% |
| Cc1c(NC(=O)CN2C(=O)c3ccccc3S2(=O)=O)c(=O)n(-c2ccccc2)n1C | 11% |
| CC(C)CCNc1ncnc2c1nnn2Cc1ccccc1 | 16% |
| CCN1C(Nc2ccccc2)=NC[C@@H]1C | -3% |
| CCNC(=O)c1cc(S(=O)(=O)N2CCSCC2)ccc1OC | 2% |
| O=C(CCCCl)NC(=S)Nc1ccc(CN2CCOCC2)cc1 | 14% |
| O=C(Nc1cccc(C(=O)O)c1)/C(=C\c1ccco1)NC(=O)c1ccccc1 | -8% |

A draw from above in order of molar mass, ascending.
| compound | VDR inh |
| --- | --- |
| CCN1C(Nc2ccccc2)=NC[C@@H]1C | -3% |
| CC(C)CCNc1ncnc2c1nnn2Cc1ccccc1 | 16% |
| O=C(Nc1cccc(C(=O)O)c1)/C(=C\c1ccco1)NC(=O)c1ccccc1 | -8% |
| COc1ccc(NC(=O)C2CC(=O)N/C(=N/N=C/c3ccccc3)S2)cc1 (stereo not drawn) | 6% |
| COC(=O)CN1C(=O)COc2ccc(S(=O)(=O)NCc3ccccc3)cc21 | -4% |
